Screens deposited in PubChem BioAssay by several laboratories.
AF4-AF9 inh – inhibitors of human MLL-AF4/AF9 interaction | AlphaScreen, biotin-AF4 peptide binding to FLAG-AF9 | inhibition, % at 10 µM | AID 651704 | P42568 | 350,000 tested, 0.47% active;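 active means every replicate reaching a set inhibition limit, whatever the replicate mean, cut at about 25% in these data; inconclusive means mean inhibition reaches that limit but some replicates miss it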;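 further: 0% = plate neutral control median and 100% = total signal loss; the record names both 10 and 1 µM as test concentration; the first replicate is given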
Ecoli growth – E. coli growth inhibition; Escherichia coli growth, OD600, 23 h; hits give low values; OD600 absorbance (no concentration beside the values); 330,000 tested, 0.21% active; AID 1053175;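 active means OD600 absorbance below the run mean of sample wells minus 3.6 SD, in any replicate, cut at about 0.56 in these data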;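 further: stock transfer was 300 nL into about 60 µL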
HNF4A DNA FP – change in binding of human HNF4 alpha to DNA | 360,000 tested, 0.3% active | HNF4a-FITC DNA binding, fluorescence polarization, 1 h | AID 1224865 | activity change, % at 10 µM; in the data active means activity change above about 30%, passing the limit was not always enough;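 further: controls were the assay level and a saturating level of protein; the project sought stronger binding though the title names inhibitors; some compounds called inactive have numbers as strong as hits; positive values seem to mean higher polarization but the record does not say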
Target sequence (P41235 whole entry, looked up): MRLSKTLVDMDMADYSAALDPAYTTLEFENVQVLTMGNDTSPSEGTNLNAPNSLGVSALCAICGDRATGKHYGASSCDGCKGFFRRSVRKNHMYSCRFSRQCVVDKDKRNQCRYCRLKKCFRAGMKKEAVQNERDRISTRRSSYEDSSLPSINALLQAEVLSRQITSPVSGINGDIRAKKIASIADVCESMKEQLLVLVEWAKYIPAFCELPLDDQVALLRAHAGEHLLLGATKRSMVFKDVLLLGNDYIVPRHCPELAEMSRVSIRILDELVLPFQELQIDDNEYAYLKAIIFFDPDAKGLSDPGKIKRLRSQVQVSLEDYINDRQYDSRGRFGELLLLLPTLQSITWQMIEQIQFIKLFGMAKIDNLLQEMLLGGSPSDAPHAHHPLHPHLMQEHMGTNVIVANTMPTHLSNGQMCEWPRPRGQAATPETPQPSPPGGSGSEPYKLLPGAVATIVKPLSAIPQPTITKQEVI
Vif TR-FRET – HIV-1 Vif–A3G interaction blockers – biochemical, TR-FRET, GST-Vif 1-94, biotin-A3G peptide, dose response retest, primary screen (AID 1117319). 260,000 tested, 0.57% active. inhibition, %; hits with a dose series show IC50 in µM. TR-FRET GST-Vif / biotin-A3G peptide binding; higher % means a stronger effect; test concentration not given here; strong numbers were not always called active;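 active means above the screen mean plus three standard deviations and confirmed in dose response; inconclusive means results disagree or hit not tested in dose response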;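 further: Vif residues 1-94 fused to GST binding biotinylated APOBEC3G peptide 110-148; 0% = full assay without inhibitor and 100% = GST in place of GST-Vif; retest series ran down from 100 µM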
FGF22 binding – binders of recombinant human FGF22 by thermal shift; SYPRO orange fluorescence; percent of sucrose octasulfate shift, DMSO zero; 340,000 tested, 1.5% active; Q9HCT0; calls only at 9.99 µM;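 active means melting point raised past a set limit in the mean and every replicate; inconclusive means no clear call; three in four hits are not shown here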
Target sequence (Q9HCT0 whole entry, looked up): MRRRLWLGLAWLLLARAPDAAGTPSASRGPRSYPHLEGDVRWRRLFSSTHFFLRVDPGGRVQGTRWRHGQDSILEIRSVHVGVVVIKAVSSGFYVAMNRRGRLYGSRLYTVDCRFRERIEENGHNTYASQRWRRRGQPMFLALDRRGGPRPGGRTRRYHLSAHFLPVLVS
UCH37 inh – human UCH37 deubiquitinating enzyme inhibition; Q9Y5K5; purified proteasome/UCH37, Ub-AMC cleavage fluorescence; inhibition, % (concentration not given with the values); 330,000 tested, 0.33% active; AID 588478;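 active means mean of two replicates above 20%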;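 further: 0% = compound-free wells with enzyme and 100% = wells lacking proteasome; stock transfer was 100 nL into about 20 µL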
Target sequence (Q9Y5K5 whole entry, looked up): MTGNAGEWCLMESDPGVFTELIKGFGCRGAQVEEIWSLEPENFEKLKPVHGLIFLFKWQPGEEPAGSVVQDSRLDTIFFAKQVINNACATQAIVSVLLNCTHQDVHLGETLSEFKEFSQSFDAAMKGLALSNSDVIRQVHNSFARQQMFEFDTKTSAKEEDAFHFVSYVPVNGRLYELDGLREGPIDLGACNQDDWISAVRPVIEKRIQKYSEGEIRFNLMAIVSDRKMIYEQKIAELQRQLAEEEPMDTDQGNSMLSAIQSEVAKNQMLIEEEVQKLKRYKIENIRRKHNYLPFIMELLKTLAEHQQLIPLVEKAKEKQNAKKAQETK
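Material: human UCH37 enzyme supplied as purified proteasome complex / Amount: 0.15 nM proteasome as dispensed / Buffer or medium: pH 7.4 Tris-HCl (50 mM) with ovalbumin, ATP-MgCl2, DTT / Times: preincubation 30 min, reaction 25 min, room temperature / Technique: AMC fluorescence from Ub-AMC cleavage, excitation 355 nm, emission 460 nm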
RanGTP-Imp inh – disruptors of Ran-importin-beta complex formation – biochemical, FRET, CFP-Ran, YFP-importin-beta, homogeneous, primary screen; cell-free CFP-Ran/YFP-importin-beta FRET ratio; inhibition, % (test concentration not listed); 300,000 tested, 1.1% active; AID 2216;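 active means most replicates above 15%; inconclusive means exactly half above 15%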;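 further: 0% = DMSO wells and 100% = Ran loaded with GDP instead of GTP; wells of about 40 µL received 100 nL stock; the first replicate is given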
The depositor's hits bear a star; i = inactive; ? = inconclusive; / = no result given; & = joins results of further samples. An excerpt (hit frequency here may not be typical).

SMILES | AF4-AF9 inh | Ecoli growth | HNF4A DNA FP | Vif TR-FRET | FGF22 binding | UCH37 inh | RanGTP-Imp inh
c1ccc(N2CCN(c3nc4cc5c(cc4s3)OCO5)CC2)cc1 | / | 0.735 | -3.4 | -2.6% | / | 2.6 | 0.3
CC(NCC(=O)Nc1ccccc1C(=O)NC1CC1)c1cccs1 (stereo not given) | 0.7 | 0.677 | 3.1 | -2.4% | i | 4.7 | /
O=C(NC1(C(=O)NC2CCCCC2)CCCCC1)c1ccccn1 | / | 0.735 | -1.7 | -0.9% | / | 1.0 | 3.9
Cc1csc(SCC(=O)Nc2cccc(S(=O)(=O)N3CCCC3)c2)n1 | / | 0.737 | -2.8 | 11.5% | / | 2.5 | -6.7
Cc1cc(=O)[nH]c(SCC(=O)N2CCCc3ccccc32)n1 | 3.1 | 0.687 | 1.7 | 0.3% | i | 2.3 | 7.7
O=C(CNc1cccc(C(F)(F)F)c1)N/N=C/c1ccccc1C(=O)O | 4.9 | / | 2.5 | ? | i | / | -0.3
CC[C@@]1(C(=O)OC)N[C@H](CN(C)S(=O)(=O)c2ccc(OC)cc2)[C@@H]2C(=O)N(C)C(=O)[C@@H]21 | 0.2 | 0.689 | 4.8 | 2.8% | i | 0.5 | /
C/C(=N\NC(=O)C(=O)Nc1cc(Cl)ccc1Cl)c1ccncc1 | -14.8 | / | 2.0 | 22.8% | i | / | 0.7
CC(C)n1c(SCc2ccc(Cl)cc2)nc2c1c(=O)[nH]c(=O)n2C | / | 0.77 | -0.4 | -3.0% | / | 4.2 | 4.0
CSc1ccccc1NC(=O)CSc1nncs1 | 0.3 | 0.722 | 3.5 | 11.6% | i | 2.6 | 1.8
Cc1ccc(C=Nc2ccccc2C(N)=O)cc1 | / | 0.62 | 1.5 | -0.6% | / | i | 4.7
O=C(CCC(=O)c1cccs1)NCC(c1ccc(F)cc1)N1CCOCC1 (stereo not given) | -0.4 | 0.673 | 5.8 | -0.9% | i | 4.3 | /
C/C(=N\NC(=O)COc1ccccc1[N+](=O)[O-])c1cccc(NC(=O)c2ccncc2)c1 | 1.6 | / | -1.0 | 5.5% | i | / | 3.2
COCCNC(=O)C[C@H]1C[C@H]2c3cc(NS(=O)(=O)c4ccc(F)cc4)ccc3O[C@H]2[C@H](CO)O1 | -1.5&-0.5 | / | -2.2 | -5.3% | i | / | /
Cc1ccc2cc(S(=O)(=O)NCCCN3CCOCC3)ccc2c1 | -0.9 | 0.69 | 3.0 | / | i | 3.3 | 10.5
CCCn1nnnc1SCC(=O)Nc1cccc(NC(=O)c2ccco2)c1 | / | 0.717 | -2.0 | 1.6% | / | 2.0 | 3.3
CC(CNC(=O)CN1C(=O)COc2ccc(S(=O)(=O)N3CCCCC3)cc21)c1ccccc1 (stereo not given) | 3.1 | 0.631 | -5.3 | / | i | 1.3 | 3.2
Cc1cc(C)c(OCCOCCN(C)C)c(Br)c1 | 3.0 | 0.704 | 3.6 | 1.0% | i | 3.4 | 1.7
CCC/C(O)=C1\C(=O)CC(c2ccccc2)CC1=NC (stereo not given) | / | 0.699 | -3.7 | ? | / | 4.0 | ?
COc1cccc(/C=N/Nc2nc(C)cc(=O)[nH]2)c1OC | 0.5 | / | -3.4 | 9.5% | / | / | 4.7
C=CCNC(=S)N1CCN(C2CCCCC2)CC1 | -7.7 | 0.71 | -38.8 | 4.6% | i | 6.4 | -4.7
Cc1ccccc1OCCn1c(=O)oc2ccccc21 | / | 0.631 | -2.9 | -1.1% | / | 2.6 | -9.6
CCCN(CCC)C(=O)CCS(=O)(=O)c1cccc2nsnc12 | / | 0.739 | 1.8 | 13.2% | / | 2.0 | 2.3
Cc1ccsc1C(=O)OCC(=O)Nc1c(C)n(C)n(-c2ccccc2)c1=O | / | 0.697 | 4.2 | 3.4% | / | -0.1 | 4.5
Cc1onc(-c2ccccc2)c1C(=O)OCc1nnc(-c2ccc([N+](=O)[O-])cc2)o1 | 7.0 | 0.713 | -1.2 | -0.5% | i | 2.1 | /
COC(=O)c1c(-c2ccccc2)csc1NC(=O)c1ccco1 | / | 0.692 | -1.2 | 4.4% | / | -178.3 | -4.0
CSc1ccc(S(=O)(=O)N(CC(=O)NCc2ccccn2)c2ccc(C)cc2)cc1 | -4.8 | 0.653 | 0.1 | / | i | 4.9 | ?
Cc1[nH]c(=O)nc2c1CCC2 | -2.0 | 0.673 | -2.1 | / | i | -1.6 | 1.1
Cc1ccc(-n2c(=O)cc(N3CCN(C(=O)c4ccco4)CC3)[nH]c2=O)cc1 | 4.2 | 0.746 | 3.2 | 1.9% | i | 6.0 | -3.0
CCOC(=O)C(=CNc1cccc(N)n1)C(=O)OCC | / | 0.688 | 1.9 | 12.5% | / | -15.9 | 6.1
O=C(CCS(=O)(=O)Cc1ccccc1F)N1CCc2ccccc2C1 | / | 0.689 | -2.3 | 22.9% | / | 1.3 | -3.4
COc1ccc(-c2nc(CS(=O)CC(=O)N3CCN(C)CC3)c(C)o2)cc1OC (stereo not given) | 2.6 | 0.707 | 0.3 | / | i | -2.5 | -2.4
CN1CCN(c2ncc(CN3C(=O)c4ccccc4C3=O)s2)CC1 | 0.4 | 0.705 | 3.1 | 1.4% | i | 1.0 | -1.4
S=C1NCN(C2CCCCC2)CN1Cc1ccccc1 | -1.4 | 0.7 | 2.5 | ? | i | 1.5 | 5.8
COc1ccc(C)cc1NC(=O)C1CCCN1S(=O)(=O)c1ccccc1F (stereo not given) | -0.3 | / | 5.3 | -4.3% | i | / | /
COc1ccccc1OCc1nnc(SCC(=O)Nc2ccc(N3CCOCC3)cc2)n1C | 2.5 | 0.699 | 1.5 | / | i | 0.2 | 0.2
COCCNc1nnc(Cc2ccc(Cl)cc2)c(=O)[nH]1 | -19.7 | 0.636 | -0.2 | 6.6% | i | -0.6 | -4.5
Cc1cc(C)nc(N2CCC(CNC(=O)CCc3ccccc3)CC2)n1 | / | 0.702 | 5.8 | -8.2% | / | -6.4 | -1.2
COc1ccc(-n2nc3c(c2NC(=O)CCCCl)CSC3)cc1 | -0.4 | 0.73 | -0.8 | / | i | -0.8 | 2.4
COc1ccc(OC)c(C2/C(=C(/O)c3ccccc3)C(=O)C(=O)N2Cc2ccco2)c1 (stereo not given) | -3.3 | 0.692 | 2.0 | / | i | 6.9 | 5.4
COC(=O)Cc1c(C)nc2nc(-c3ccc(C)cc3)[nH]n2c1=O | / | 0.676 | 2.5 | 22.4% | / | 3.7 | 5.3
N#Cc1cnn(Cc2ccccc2)c1/N=C/N1CCOCC1 | / | / | -2.9 | 30.8% | / | / | -2.7
COc1cc([N+](=O)[O-])ccc1-c1ccc(/C=C2\C(=O)ON=C2c2ccccc2)o1 | 1.0 | 0.702 | -0.5 | / | i | 34.0* | /
Cc1ccc(S(=O)(=O)/N=C(/Nc2cccc(O)c2)c2ccccc2)cc1 | 2.1 | 0.721 | 175.7 | 3.6% | i | 3.7 | -3.1
Cc1cccc(OCC(=O)Nc2ncn[nH]2)c1C | / | / | 4.8 | / | i | / | 6.0
Cc1cccc(C)c1OCCNC(=O)c1ccc2ccccc2n1 | -6.6 | 0.627 | 1.2 | 5.4% | i | 2.3 | -0.9
Cc1ccc(CN2CCN(Cc3cnc(C)s3)CC2CCO)cc1 (stereo not given) | -1.6 | 0.65 | -1.2 | 21.7% | i | 0.6 | -1.6
CCC(C)c1c(O)nc(SCc2ccccc2)[nH]c1=O (stereo not given) | / | 0.707 | 1.7 | -4.2% | / | 6.0 | 3.9

An excerpt from above in order of the RanGTP-Imp inh value, falling:
structure,RanGTP-Imp inh
Cc1cccc(OCC(=O)Nc2ncn[nH]2)c1C,6.0
CCC(C)c1c(O)nc(SCc2ccccc2)[nH]c1=O (stereo not given),3.9
Cc1cccc(C)c1OCCNC(=O)c1ccc2ccccc2n1,-0.9
COCCNc1nnc(Cc2ccc(Cl)cc2)c(=O)[nH]1,-4.5

(list continues)
SMILES | AF4-AF9 inh | Ecoli growth | HNF4A DNA FP | Vif TR-FRET | FGF22 binding | UCH37 inh | RanGTP-Imp inh
Cc1ccc(NC(=O)CN2C(=O)C(=O)N(C3CCCC3)C2=O)c(Cl)c1 | -1.4 | 0.677 | 1.7 | 9.8% | i | 1.7 | /
Cc1cc(NC(=O)CSc2nnc(-c3ccncc3)n2N)ccc1Br | / | 0.69 | -0.7 | 67.0% | / | 2.2 | 8.8
Cc1nn2c(-n3ccnc3)c3c(nc2c1-c1ccccc1)CCC3 | / | 0.658 | 1.1 | -0.7% | / | 2.5 | -0.6
Cc1ccc(OCC(=O)c2ccc3c(c2)CCCC3)cc1C | / | 0.756 | -0.2 | -3.0% | / | 2.9 | 2.2
O=C1c2ccccc2C(Nc2ccccc2)N1c1cccnc1 (stereo not given) | -4.3 | 0.705 | 1.6 | 4.6% | i | 2.3 | -1.5
CCOC(=O)C1(Cc2ccccc2C(F)(F)F)CCN(Cc2ccon2)CC1 | -2.1 | 0.711 | -2.6 | 31.5% | / | 2.2 | 2.2
Cc1sc2ncnc(N3CCC(C(=O)NNC(=O)c4ccc(Cl)cc4)CC3)c2c1C | 0.1 | 0.634 | -0.9 | -11.1% | i | 4.5 | 0.9
CC(C)Oc1ccccc1C1NC(=O)CCC1[N+](=O)[O-] (stereo not given) | -2.1 | 0.618 | 5.8 | / | i | 0.3 | 4.5
CCCCc1ccc(NC(=S)N2CCC(O)CC2)cc1 | 1.9 | 0.686 | 0.1 | -3.1% | i | 2.3 | -1.2
COc1cccc(CNC(=O)CCC2CCCN(C(=O)CCC(F)(F)F)C2)c1 (stereo not given) | -8.4 | 0.684 | 0.2 | / | / | 0.9 | -0.1
O=C(Nc1ccccc1N1CCN(C(=O)c2ccccc2)CC1)c1ccc2c(c1)OCO2 | / | 0.701 | 3.8 | 13.2% | / | 1.8 | 4.1
Cc1noc(NS(=O)(=O)c2ccc(N/C=C\C(=O)c3ccccc3)cc2)c1C | -3.2 | / | 6.7 | -5.3% | / | 9.2 | -1.0

In the list so far, 5 have a furan ring, fused or not:
SMILES | AF4-AF9 inh | Ecoli growth | HNF4A DNA FP | Vif TR-FRET | FGF22 binding | UCH37 inh | RanGTP-Imp inh
CCCn1nnnc1SCC(=O)Nc1cccc(NC(=O)c2ccco2)c1 | / | 0.717 | -2.0 | 1.6% | / | 2.0 | 3.3
COC(=O)c1c(-c2ccccc2)csc1NC(=O)c1ccco1 | / | 0.692 | -1.2 | 4.4% | / | -178.3 | -4.0
Cc1ccc(-n2c(=O)cc(N3CCN(C(=O)c4ccco4)CC3)[nH]c2=O)cc1 | 4.2 | 0.746 | 3.2 | 1.9% | i | 6.0 | -3.0
COc1ccc(OC)c(C2/C(=C(/O)c3ccccc3)C(=O)C(=O)N2Cc2ccco2)c1 (stereo not given) | -3.3 | 0.692 | 2.0 | / | i | 6.9 | 5.4
COc1cc([N+](=O)[O-])ccc1-c1ccc(/C=C2\C(=O)ON=C2c2ccccc2)o1 | 1.0 | 0.702 | -0.5 | / | i | 34.0* | /

The results go on:
SMILES | AF4-AF9 inh | Ecoli growth | HNF4A DNA FP | Vif TR-FRET | FGF22 binding | UCH37 inh | RanGTP-Imp inh
CN1CCCN(C(=O)c2cc3c(s2)CCCC3)CC1 | 0.1 | 0.679 | -2.2 | / | i | 3.2 | -1.4
O=C(N/N=C/c1ccc(O)cc1O)c1ccncc1 | -1.6 | / | 2.2 | -8.9% | i | / | 0.8
CCCn1c2ccccc2c2cnn(CC(=O)NCCOC)c(=O)c21 | -2.6 | 0.678 | -1.6 | / | i | -20.8 | -0.9
CCN(CCn1cccn1)Cc1nc(-c2ccccc2)no1 | -1.9 | 0.664 | -6.1 | -5.7% | i | 3.1 | 3.0
